Arbovirus inh = arbovirus infection inhibition; arbovirus infection cell-based antiviral screen; inhibition, % at 10 µM; 200,000 tested, 0.37% active; AID 1251;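 active = inhibition from about 30%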;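 note: bluetongue infection of BSR cells; cell survival read as ATP light after 72 h; 0% = infected wells without compound and 100% = uninfected wells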
RecA splice inh = Mtb RecA intein splicing inhibition; P9WHJ3; cell-free RecA intein splicing, fluorescence; inhibition, %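 (about 9 µM by stock and volumes)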; 290,000 tested, 0.75% active; in the data active = inhibition above about 30%; inconclusive = no clear call, values can overlap the other calls;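 note: 0% = vehicle wells and 100% = reference inhibitor control wells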
Target sequence (P9WHJ3 whole entry, looked up, canonical isoform): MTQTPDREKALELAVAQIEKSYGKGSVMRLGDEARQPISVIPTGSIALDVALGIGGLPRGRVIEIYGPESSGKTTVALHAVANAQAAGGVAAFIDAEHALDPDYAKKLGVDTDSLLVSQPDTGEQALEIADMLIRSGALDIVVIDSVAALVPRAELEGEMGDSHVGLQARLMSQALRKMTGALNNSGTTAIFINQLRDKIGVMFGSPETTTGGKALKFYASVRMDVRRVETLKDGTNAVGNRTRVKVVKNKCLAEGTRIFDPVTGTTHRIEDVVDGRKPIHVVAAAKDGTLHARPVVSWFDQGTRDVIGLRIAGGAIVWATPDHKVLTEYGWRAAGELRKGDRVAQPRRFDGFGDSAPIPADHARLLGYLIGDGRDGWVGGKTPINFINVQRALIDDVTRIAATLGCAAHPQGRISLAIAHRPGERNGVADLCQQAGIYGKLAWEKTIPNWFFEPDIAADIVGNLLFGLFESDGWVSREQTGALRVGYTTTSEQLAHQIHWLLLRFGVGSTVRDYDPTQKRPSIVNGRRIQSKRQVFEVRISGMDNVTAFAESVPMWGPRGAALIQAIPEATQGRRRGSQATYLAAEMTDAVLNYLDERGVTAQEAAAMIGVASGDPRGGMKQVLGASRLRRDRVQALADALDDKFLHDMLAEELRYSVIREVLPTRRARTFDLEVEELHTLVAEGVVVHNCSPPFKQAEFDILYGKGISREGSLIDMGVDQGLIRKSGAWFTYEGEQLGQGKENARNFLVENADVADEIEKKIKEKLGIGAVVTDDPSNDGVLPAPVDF
Mtb growth = M. tuberculosis H37Rv growth inhibitors, H37Rv strain (AID 1626) | 220,000 tested, 0.95% active | M. tuberculosis H37Rv growth inhibition; higher % means a stronger effect | inhibition, % at 10 µM; hits with a dose series show IC50 in µM;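 active = confirmed in a dose series; inconclusive = inhibition above 80% but not taken into the dose series; inactive = below 80% or under 30% at every dose of the series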;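 note: bacteria incubated seven days before Alamar blue readout; 0% = bacteria only wells and 100% = bacteria with antibiotic wells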
YopH inh = blocks Yersinia enterocolitica YopH tyrosine phosphatase; fluorescence Ex485/Em525; inhibition, %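 (about 10 µM by stock and volumes)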; 140,000 tested, 0.16% active;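 active = inhibition of 50% or more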;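 note: controls were vehicle for no effect and minimum signal wells for full effect; inactives centre near -20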
Mtb betalactam = beta-lactam sensitization of Mtb H37Rv; M. tuberculosis H37Rv growth with meropenem, percent inhibition; hits of this screen are not shown here; inhibition, % at 25 µM; 330,000 tested, 0.27% active;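 active = about 74% or more and at least 40 points above the plate without the antibiotic, then above 30% in a dose series; inconclusive = first-round hits that could not be retested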;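 note: growth measured after seven days incubation then overnight dye step; 0% = bacteria only wells and 100% = bacteria with antibiotic; twin plates without the antibiotic show which effects depend on it; some results filed as inactive read as strong as hits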
Arbovirus inh repeat = recorded beside Arbovirus inh, whose call it bears; inhibition, %; measured here: 10K subset replicate screen; many hits read low in the repeat;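 first of two repeat runs on a subset; 0% = infected and 100% = uninfected wells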
An asterisk follows results filed as active; ? = inconclusive; nt = no result given.

SMILES | Arbovirus inh | RecA splice inh | Mtb growth | YopH inh | Mtb betalactam | others
Cc1cc(C)c(C(=O)N2CCC3(CC2)OCCO3)c(C)c1 | nt | 1.2 | nt | nt | 3.7
O=c1/c(=C\c2cccnc2)sc2nc3ccccc3n12 | 1.8 | -0.5 | -1.5% | -48.9 | nt
Cc1ccc(/C=C/c2ccc(=O)n(Cc3ccccc3Cl)n2)cc1 | -27.7 | 0.4 | 18.6% | -23.4 | 1.7
Clc1ccc(Cn2cnc3ccccc32)cc1 | -9.1 | 5.3 | -2.7% | nt | -5.9
COc1ccc(C(=O)Nc2cc(C(C)=O)c(C)oc2=O)cc1 | 6.3 | -0.3 | 5.5% | nt | 1.0
Cc1ccc(/C=N/NC(=O)c2cc3c(ccc4ccccc43)o2)cc1[N+](=O)[O-] | -2.5 | 1.6 | nt | -29.8 | -2.8
O=C1CCC(C(=O)O)(c2ccccc2)C1 (stereo not given) | -3.0 | 2.2 | -7.5% | -32.1 | 4.1
COc1ccc(C(=O)N2CCC(C(=O)Nc3ccccc3C)CC2)cc1OC | 5.1 | -1.0 | -0.5% | nt | 10.2
COc1ccc(C(CNC(=O)c2cccc(S(=O)(=O)Nc3cccc(C)c3)c2)N2CCOCC2)cc1 (stereo not given) | nt | -0.5 | nt | nt | -8.3
Clc1ccc(-c2nc(/C=N/N3CCOCC3)c3ccccn23)cc1 | 2.3 | -0.1 | 2.1% | nt | 1.3
O=C(NC(=S)NCc1cccnc1)c1cc2ccccc2o1 | 1.4 | 2.0 | 2.7% | nt | 4.4
CC(=O)N1CCN(Cc2nc3cc(NC(=O)c4ccc(F)cc4)ccc3n2C)CC1 | 0.2 | 1.3 | 1.1% | nt | -3.1
COc1ccc(OCC(=O)Nc2ccc3c(c2)nc(CN2CCCC2)n3C)cc1 | -3.9 | 1.1 | -1.4% | -8.4 | -7.6
COc1ccc(/C=C2\Sc3ccc(C(=O)N4CCCC4)cc3N(C)C2=O)cc1OC | nt | -1.7 | nt | nt | 4.9
O=C(/C=C/c1ccc([N+](=O)[O-])cc1)OCC(=O)N1c2ccccc2Sc2ccccc21 | 0.7 | 2.0 | -0.1% | 53.1* | -1.4
CCC(C)(C(=O)NC1CCCCC1)N(C)C(=O)c1ccc2c(c1)OCO2 (stereo not given) | 6.3 | 3.3 | -3.3% | -19.6 | -0.4
COc1ccccc1NC(=O)C(C)n1cnc2c(oc3nc4c(cc32)CCCC4)c1=O (stereo not given) | nt | 0.0 | nt | nt | ?
Cc1ccc(NC(=O)CN2C(=O)N/C(=C\c3cccn3-c3cccc(C(=O)O)c3)C2=O)cc1 | 7.1 | 2.0 | -2.5% | nt | nt
CC(C)CC(=O)Nc1cccc(C(C)O)c1 (stereo not given) | 15.8 | -0.3 | -0.1% | nt | 9.4
O=C(Nc1ncc(Cc2ccccc2)s1)C1COc2ccccc2O1 (stereo not given) | 0.7 | -0.4 | 13.8% | -18.0 | 69.0
Cn1c(CNS(=O)(=O)c2ccc(F)cc2)n[nH]c1=S | 4.8 | nt | -8.6% | -37.9 | -3.6
CSc1ccc(C(=O)C2CCCN(C(=O)CN3CCOC3=O)C2)cc1 (stereo not given) | nt | -0.9 | nt | nt | 1.7
COc1cc(NC(=O)CSc2nncn2C)c(C)cc1[N+](=O)[O-] | 21.8 | -0.5 | -1.2% | nt | -7.4
O=C(Cc1ccc(-n2cccc2)cc1)NC1CCCCC1 | -4.4 | 0.4 | 1.1% | -5.5 | 22.1

Next section; it opens with the 4 that closed the last part.
SMILES | Arbovirus inh | RecA splice inh | Mtb growth | YopH inh | Mtb betalactam | others
Cn1c(CNS(=O)(=O)c2ccc(F)cc2)n[nH]c1=S | 4.8 | nt | -8.6% | -37.9 | -3.6
CSc1ccc(C(=O)C2CCCN(C(=O)CN3CCOC3=O)C2)cc1 (stereo not given) | nt | -0.9 | nt | nt | 1.7
COc1cc(NC(=O)CSc2nncn2C)c(C)cc1[N+](=O)[O-] | 21.8 | -0.5 | -1.2% | nt | -7.4
O=C(Cc1ccc(-n2cccc2)cc1)NC1CCCCC1 | -4.4 | 0.4 | 1.1% | -5.5 | 22.1
Nc1ccccc1SC1CC(=O)N(c2ccc3c(c2)OCCO3)C1=O (stereo not given) | nt | -10.6 | -7.1% | nt | 0.4
Cc1ccc(-n2nnnc2CNC(=O)c2ccc(Br)o2)cc1C | nt | -1.1 | nt | nt | -9.7
O=c1nc2n(c3c1oc1ccccc13)Cc1ccccc1-2 | -3.2 | -0.5 | 7.3% | -34.0 | nt
Cc1cccc(NC(=O)CN2C(=S)NC(C)(C)CC2C)c1C (stereo not given) | -6.8 | -1.9 | -0.2% | -19.6 | -2.9
COc1ccccc1OCC(=O)NCc1nc(-c2ccccc2)no1 | -1.0 | 13.0 | 5.0% | nt | -11.6
COC(=O)C(CC(=O)Nc1cc(C)ccc1C)Nc1ccccc1OC (stereo not given) | 5.6 | 3.6 | -5.9% | -30.3 | -4.1
COc1ccc(Cn2nnnc2C(c2ccccc2OC)N2CCC(C(N)=O)CC2)cc1 (stereo not given) | 12.7 | -10.0 | -3.4% | -7.8 | -10.2
NC(=O)[C@@H]1CCCN1Cc1c(C(=O)N2CCN(C3CCCCC3)CC2)nc2ccccn12 | nt | -9.6 | nt | nt | -7.0
Cc1ccc(C)c(S(=O)(=O)N2CCN(C(=O)Cc3ccccc3)CC2)c1 | nt | 1.9 | nt | nt | -2.5
COc1cccc(C2c3[nH]c4ccccc4c3CCN2Cc2cccc(C)n2)c1 (stereo not given) | -3.7 | -12.1 | 36.5% | nt | 38.5
CCC(c1nnnn1Cc1ccco1)N1CCC(C(N)=O)CC1 (stereo not given) | 8.7 | -1.0 | nt | -33.8 | -1.0
CCN(CC(=O)Nc1ccc(N2CCOCC2)cc1)C(=O)c1ccc(C(F)(F)F)cc1 | 3.9 | 1.0 | 0.1% | nt | -5.3

Two entries picked at random from those above, as already listed:
SMILES | Arbovirus inh | RecA splice inh | Mtb growth | YopH inh | Mtb betalactam | others
COc1ccc(C(=O)N2CCC(C(=O)Nc3ccccc3C)CC2)cc1OC | 5.1 | -1.0 | -0.5% | nt | 10.2
COc1ccccc1NC(=O)C(C)n1cnc2c(oc3nc4c(cc32)CCCC4)c1=O (stereo not given) | nt | 0.0 | nt | nt | ?

Carrying on.
SMILES | Arbovirus inh | RecA splice inh | Mtb growth | YopH inh | Mtb betalactam | others
CSC1=N/C(=C\c2ccc(C)cc2)C(=O)S1 | 3.8 | -1.2 | 14.3% | -10.4 | 10.4
Nc1nc(SCn2nnc3ccccc3c2=O)n[nH]1 | 11.8 | -0.5 | 7.5% | nt | -5.2
Cn1cccc1-c1cc(C(=O)N/N=C/c2cc(Br)ccc2O)[nH]n1 | nt | 5.4 | nt | nt | 3.7
COc1ccc(NC(=O)CN(C)C2CCCCC2)cc1Cl | nt | -0.5 | 0.6% | nt | -2.8
O=C(NN1C(=O)c2ccccc2NC12CCCCC2)c1ccccc1 | 7.7 | 0.9 | -4.1% | nt | 12.3
CC1CCN(C(=O)CSc2nc3ccccc3s2)CC1 | 1.1 | -1.7 | nt | -5.2 | -1.4
CC(OC(=O)CCCN1C(=O)c2ccccc2C1=O)C(=O)Nc1ncc(Cl)cc1Cl (stereo not given) | 6.0 | 0.6 | -4.8% | -0.9 | -8.1
Cc1snc(SCC(=O)c2ccc(Cl)cc2)c1C#N | 4.5 | 0.8 | 1.1% | -34.5 | 45.3
C/C(O)=C(/C#N)c1nc2ccccc2[nH]1 | -5.0 | nt | 10.1% | -27.6 | 72.4
CCOc1cc(CNc2ccc(N3CCN(C(C)=O)CC3)cc2)cc(Br)c1OC | -3.6 | -0.9 | -0.4% | 14.7 | 0.1
Nn1c(SCc2ccc(C(=O)O)cc2)nnc1-c1ccc(Cl)cc1Cl | nt | -0.2 | nt | nt | 5.2
O=C(N/N=C/c1ccncc1)c1cc([N+](=O)[O-])cc([N+](=O)[O-])c1O | 11.0 | 6.9 | nt | -8.5 | 96.1
Cc1ccc(NC(=O)NC(=O)CN2C(=O)NC3(CCc4ccccc43)C2=O)c(C)c1 (stereo not given) | -17.2 | 6.6 | 3.0% | -4.0 | 2.4
Cn1c(C2=C(O)CN(c3ccc4c(c3)OCCO4)C2=N)nc2ccccc21 | 2.7 | -1.4 | 2.2% | 0.1 | 2.9
CN(C)CC1CSCCC1(O)c1ccc(Cl)cc1 (stereo not given) | 9.1 | -1.2 | -8.4% | -38.1 | -11.1
CCOC(=O)c1sc(NC(=O)CSc2nnnn2-c2ccc(C)cc2C)nc1C | -0.6 | -1.4 | nt | -39.3 | -8.4
COc1cc(/C=N/NC(=S)NCC2CCCO2)cc(OC)c1OC (stereo not given) | nt | -0.8 | 6.8% | nt | 66.6
Cc1ccc2[nH]c(C)c(/C=N/Nc3nc4ccccc4s3)c2c1 | -21.8 | 2.2 | 20.6% | 37.9 | 13.7
Cc1sc2nc(NCCO)[nH]c(=O)c2c1C | -0.3 | -0.5 | 2.6% | -27.5 | -2.0 | Arbovirus inh repeat=1.9
CC1(NC(=O)C23CC4CC(CC(C4)C2)C3)CCS(=O)(=O)C1 (stereo not given) | 2.1 | -1.0 | -4.7% | -1.4 | -5.8
CSc1nc(SCC(=O)NCC2CCCO2)c2c3c(sc2n1)CN(C)CC3 (stereo not given) | nt | 8.9 | nt | nt | -4.1
C=CCn1c(O)c(N=NC(=O)C(O)c2ccccc2)c2ccccc21 (stereo not given) | nt | 1.7 | -0.8% | nt | -4.2
CNc1nc(SC)nc2ccsc12 | 8.7 | -1.5 | 5.66µM* | -44.6 | 77.4
Cc1nn(-c2ccccc2)c(C)c1/C=C/C(=O)OCC(=O)Nc1ncc(C(F)(F)F)cc1Cl | 0.8 | 5.2 | -2.6% | -9.5 | 5.8
O=c1oc2ccccc2c(CNc2ccccc2)c1[N+](=O)[O-] | nt | -2.7 | nt | nt | -4.5
CSCCC(NC(=O)OC(C)(C)C)C(=O)NC(C(=O)NC(CC(C)C)C(N)=O)C(C)C (stereo not given) | -0.4 | 0.5 | -0.6% | -2.6 | -2.9
O=C(NCCC(=O)N1CCc2ccccc21)c1ccccc1Cl | nt | 1.4 | nt | nt | -2.6
CCc1noc(C)c1C(=O)N1CCCC(C(=O)c2cc(F)ccc2OC)C1 (stereo not given) | -3.0 | -4.9 | 5.0% | nt | 0.7
Cc1cc(N2C(=O)C(=O)/C(=C(/O)c3ccc(Cl)cc3)C2c2cccc(Br)c2)no1 (stereo not given) | 24.4 | 8.3 | -4.8% | -52.9 | 8.5
COc1ccc(NC(=O)Nc2ccc3[nH]ccc3c2)cc1 | nt | 0.7 | nt | nt | -7.6
COCCNC(=O)CNC(=S)N(Cc1ccccc1)Cc1cccnc1 | -7.0 | -1.4 | -3.3% | -15.2 | 3.9
O=[N+]([O-])c1ccccc1/C=N/n1c(-c2cccnc2)n[nH]c1=S | -0.2 | -3.1 | -3.6% | -3.0 | 1.0
O=C(O)c1ccccc1NC(=O)C1C2C=CC(C2)C1C(=O)O (stereo not given) | nt | -0.7 | nt | nt | -4.5
Cc1ccc(Cl)cc1N1CCN(Cc2nc3c(c(=O)[nH]c(=O)n3C)n2Cc2ccccc2F)CC1 | nt | -2.8 | nt | nt | -8.3
COc1ccc(/C(C)=N\Nc2nc(-c3ccccc3)cc(=O)[nH]2)cc1 | -2.9 | -1.2 | 38.3% | -11.0 | 10.3
CCOc1ccccc1NC(=O)c1ccoc1C | -8.0 | -0.3 | 2.3% | -16.2 | -2.0
COc1ccc(CNC(=O)Cn2nnc3ccccc3c2=O)cc1 | nt | -3.5 | 9.4% | nt | -4.8
Nc1nccc(-c2ccc(-n3cccc3)cc2)n1 | -2.7 | -1.5 | 3.3% | nt | -0.3
CCCN(CCC)C(=O)c1ccc2c(=O)n(Cc3ccco3)c(=S)[nH]c2c1 | 1.0 | 3.3 | -4.8% | nt | 0.0
CCOc1ccc(OCC)c(NC(=O)C2COc3ccccc3O2)c1 (stereo not given) | 2.7 | nt | 6.9% | 3.6 | 5.3
CSc1ccccc1NC(=O)CN(C)Cc1cccc(Cl)c1 | -3.0 | 15.0 | 0.3% | nt | 4.0
Cc1nc2ccccc2c2oc(C(=O)N3CCN(C4CCCCC4)CC3)cc12 | 14.8 | 4.1 | -5.1% | 1.5 | 5.2 | Arbovirus inh repeat=5.5
CCOC(=O)c1cn2nc(N3CCCC3)ccc2n1 | nt | -0.5 | 5.5% | nt | -10.2
Cc1ccc(OCC(O)CN2CCN(c3ccccn3)CC2)c(C)c1 (stereo not given) | -12.1 | 0.7 | -3.2% | nt | -8.9
CC1=CCC2C(=O)N(c3cccc(C(=O)NCc4ccccc4)c3)C(=O)C2C1 (stereo not given) | nt | -0.7 | nt | nt | 5.6
COc1cccc2cc(C(C)N(CCCN3CCOCC3)C(=O)Nc3ccccc3)oc12 (stereo not given) | 5.9 | 0.1 | -2.4% | -58.0 | -11.4

An excerpt, so the mix of outcomes need not match the whole.
